# TRPML1 blocker: inhibitors of human TRPML1 channel | Q9GZU1 | TRPML1-inducible cells, Ca2+ dye fluorescence, FDSS; stronger effect = lower value; inhibition of EC80 agonist-evoked calcium signal | activity change, negative = inhibition, % (test concentration not listed) | 390,000 tested, 0.02% active | AID 624415; in the data active means activity change below about -50%; inconclusive means about -30% to -50%; inactive means above about -30%;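 further: stimulus is agonist 54-4 at its EC80 concentration; on the % scale 0 is the no-effect control and ±100 the full control effect; compound concentration not given in the record; the text of the record puts the active cut at -80%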
#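 TRPML1-DL cells, Tet-induced overnight (~16 h, 37 °C) at 1,500 cells/well, were loaded with Ca8 no-wash dye plus quencher for 45-90 min at room temperature. Compounds were pinned during FDSS kinetic reading; agonist 54-4 at EC80 (4 uM final) then added.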
# TRPV1 potentiator: potentiators of human vanilloid receptor 1 (TRPV1) | potentiation, % at 8.33 µM | AID 540277 | Q8NER1 | TRPV1-expressing cells, Fluo-8 calcium influx, capsaicin EC20 potentiation; host cell line not named in the record; control for the full effect not named in the record | 320,000 tested, 0.02% active; active means potentiation above 80%; inconclusive means 30% to 80%; inactive means below 30%; further: 0% is about no effect
# Target sequence (Q8NER1 whole entry, looked up): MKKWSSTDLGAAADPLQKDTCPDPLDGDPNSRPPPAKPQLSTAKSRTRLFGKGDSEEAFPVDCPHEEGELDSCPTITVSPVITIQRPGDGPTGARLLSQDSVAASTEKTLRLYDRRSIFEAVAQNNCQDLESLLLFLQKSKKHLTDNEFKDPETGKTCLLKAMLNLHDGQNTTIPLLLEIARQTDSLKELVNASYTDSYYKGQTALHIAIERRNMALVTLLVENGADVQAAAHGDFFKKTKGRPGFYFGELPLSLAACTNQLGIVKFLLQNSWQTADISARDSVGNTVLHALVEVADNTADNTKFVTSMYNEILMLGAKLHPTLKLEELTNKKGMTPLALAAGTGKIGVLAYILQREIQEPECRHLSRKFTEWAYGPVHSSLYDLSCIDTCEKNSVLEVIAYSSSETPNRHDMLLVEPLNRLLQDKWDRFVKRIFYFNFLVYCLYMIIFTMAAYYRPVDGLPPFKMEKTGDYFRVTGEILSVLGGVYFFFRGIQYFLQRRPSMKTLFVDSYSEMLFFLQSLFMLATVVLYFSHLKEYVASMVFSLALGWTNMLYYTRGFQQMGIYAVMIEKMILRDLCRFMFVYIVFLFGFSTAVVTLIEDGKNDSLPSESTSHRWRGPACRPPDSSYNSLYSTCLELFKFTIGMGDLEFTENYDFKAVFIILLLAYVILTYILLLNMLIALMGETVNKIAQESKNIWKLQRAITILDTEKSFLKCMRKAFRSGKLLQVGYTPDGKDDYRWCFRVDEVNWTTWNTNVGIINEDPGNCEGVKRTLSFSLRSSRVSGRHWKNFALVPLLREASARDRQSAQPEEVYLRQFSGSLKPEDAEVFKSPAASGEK
#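 Fluo-8 calcium influx in TRPV1-expressing cells, kinetic read (ex 480/em 520 nm). Compound added and read 3 min for agonist activity, followed by capsaicin at EC20 final and 2 min further read for enhancement.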
# Six1-Eya2 blk: blocks human Six1 binding to Eya2; Q15475+O00167; AlphaScreen GST-Six1/His-Eya2 binding, biochemical; stronger effect = lower value; control for the full effect not named in the record; activity change, % (no concentration beside the values); 360,000 tested, 0.56% active; in the data active = activity change below about -65%; inconclusive = about -30% to -65%; inactive = above about -30%; further: on the % scale 0 is the no-effect control and ±100 the full control effect; compound concentration not given in the record
#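 AlphaScreen with GST-Six1 and His-Eya2 (5X mix: 250 nM and 500 nM), glutathione donor and nickel acceptor beads; buffer 50 mM Tris pH 8.0, 300 mM NaCl, 1 mM TCEP; 1 h at 37 C in the dark.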
# TRPML1 ag: activates the human TRPML1 channel; AID 624414; TRPML1-expressing cells, Ca2+ dye fluorescence, FDSS; host cell line not named in the record; reference of the full effect not given here; Q9GZU1; activation, % (no concentration beside the values); 410,000 tested, 0.12% active; in the data active = activation above about 50%; inconclusive = about 30% to 50%; inactive = below about 30%; further: 0% is about no effect; the text of the record puts the active cut at 80%
#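 In this qHTS format, compounds were pin-transferred onto Ca8-dye-loaded TRPML1-DL cells induced with Tet overnight, and intracellular Ca2+ fluorescence was recorded kinetically for 110 s after a 10 s baseline. A subsequent 4uM final 54-4 (EC80) addition followed by a second 110 s read served as the antagonist phase.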
# D2 PAM: positive allosteric modulators of human D2 dopamine receptor. AID 624464. P14416. 360,000 tested, 0.23% active. potentiation, % (concentration not given with the values). DiscoveRx D2 beta-arrestin cells, luminescence, 90 min; 100% = 57 uM dopamine signal; active = potentiation of 50% or more; inconclusive = 30% to 50%; inactive = 30% or less;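 further: compound concentration not given in the record; tested on top of an EC20 dose of dopamine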
#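 PathHunter D2 cells, attached overnight at 37 deg C, received compound in DMSO plus dopamine at EC20 (50 nM final) for 90 min at 37 deg C. Beta-arrestin recruitment was read as luminescence after 1 h with detection reagent at ambient temperature.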
# CtBP-E1A inh: blocks the CtBP interaction with E1A; AlphaScreen GST-E1A/His-CtBP binding, 1536-well; stronger effect = lower value; control for the full effect not named in the record; activity change, % (concentration not given with the values); 340,000 tested, 0.49% active; in the data active means activity change below about -65%; inconclusive means about -30% to -65%; inactive means above about -30%; further: on the % scale 0 is the no-effect control and ±100 the full control effect
#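 Steps: dispense buffer (Tris pH 8.0, NaCl 300 mM, TCEP 1 mM, BSA, Tween 20); add 5X protein mix (GST-E1A, His-CtBP, 125 nM each); pin 23 nL compound; 2 h at 37 °C, dark; add 5X beads (50 ug/mL); 1 h; read.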
# An asterisk follows results filed as active; ? = inconclusive; nt = not tested or not shown.
SMILES	TRPML1 blocker	TRPV1 potentiator	Six1-Eya2 blk	TRPML1 ag	D2 PAM	CtBP-E1A inh
COCCCN1C(=O)c2ccccc2C1C(=O)NC1CCCCCC1 (stereo unspecified)	-3	6	10	-0.6	0	22
Cc1ccc(S(=O)(=O)N2CCN(CC(=O)N/N=C/c3ccc(Br)s3)CC2)cc1	-12	1	-7	2.5	-13	-5
NC(=S)Cc1nc2n(n1)Cc1ccccc1-2	6	27	-1	0.0	-9	-8
COc1ccc(C=NOCC(=O)OCC(=O)Nc2ccc(OC)cc2)cc1	12	nt	-2	3.1	-14	2
CCOC(=O)c1sc2ncnc(NCc3ccco3)c2c1C	-19	-6	-15	0.5	-8	-3
COC(=O)CSc1nc2cc3c(cc2cc1C#N)OCO3	-3	1	7	-0.9	11	-9
COc1ccc(CCN(C)C(=O)CN2C(=O)NC3(CCCc4ccccc43)C2=O)cc1OC (stereo unspecified)	-3	-4	0	0.1	-1	7
Cc1oc2ccc(OC(=O)COc3c(F)c(F)c(F)c(F)c3F)cc2c1C(=O)OC(C)C	-1	12	5	-0.5	-7	3
CCS(=O)(=O)N1CCN(c2ccc([N+](=O)[O-])c(NCc3ccccc3)c2)CC1	-5	-2	-8	0.7	-30	-23
COc1ccc(CNC(=O)Cc2c[nH]c3ccccc23)cc1OC	nt	1	-12	nt	4	3
Cc1cn(C2OC(CC(=O)Oc3ccccc3)C(O)C2O)c(=O)[nH]c1=O (stereo unspecified)	9	nt	3	0.3	-9	5
Clc1ccc(/C=N/c2c(-c3ccco3)nc3ccccn23)cc1	5	-1	-20	1.1	17	7
COc1ccc(NC(=O)CN(C)C(=O)c2ccc(N3CCOCC3)c([N+](=O)[O-])c2)cc1	25	0	2	-0.3	-27	1
Cc1ccc(Nc2ccc(S(=O)(=O)N3CCOCC3)cc2[N+](=O)[O-])c(C)c1	-15	9	?	2.3	-17	?
N#Cc1ccccc1/C=N/Nc1nc(-c2ccccc2)c2cc(Cl)ccc2n1	25	-23	-4	-0.2	-11	0
CCOC(=O)C1=C(C)N(CCCCCC(=O)O)C(=O)NC1c1ccccc1OS(=O)(=O)c1ccc(C)cc1 (stereo unspecified)	1	nt	1	-0.5	-10	0
CCOC(=O)c1ccc(NC(=S)NCCCN2CCOCC2)cc1	16	0	-2	1.7	-8	5
COC(=O)c1c(-c2cc(OC)cc(OC)c2)sc2ccc(OC)cc12	5	nt	17	1.3	nt	11
CC1(C(=O)NS(=O)(=O)C2CC2)CCCN(C(=O)c2cccc(Cl)c2)C1 (stereo unspecified)	-21	nt	11	0.3	-9	-18
CCN(CCN(C)C)C(=O)Cn1ncc2c1-c1cc(C)ccc1OC2	3	nt	0	-0.2	-8	8
C=CC[C@@H](Cc1ccc(F)cc1)C(=O)OC[C@@H]1CCCN1C(=O)[C@@H](CC=C)CC(=O)N[C@H](CO)Cc1ccccc1	30	nt	0	-1.0	-8	0
NS(=O)(=O)c1ccc(-c2c(-c3ccccc3)sc3ccccc23)cc1	25	-5	-3	0.1	-16	-2
COc1ccc(N2CCN(c3nc4c(C)cccn4c(=O)c3/C=C(\C#N)C(N)=O)CC2)cc1	-8	28	?	2.5	15	-24
O=C(COC(=O)/C=C/c1ccccc1Cl)NCc1ccco1	-4	-9	4	-1.3	0	0
O=C(Nc1nnc(S(=O)(=O)N2CCOCC2)s1)c1ccccc1Br	9	1	-1	0.1	0	-13
COc1ccc(NC(=O)Nc2ccc3c(c2)C(=O)N([C@H](C)CO)C[C@H](C)[C@@H](CN(C)Cc2ccc(Cl)c(Cl)c2)OCCCC[C@@H](C)O3)cc1	-3	nt	-14	1.8	-5	0
CCOC(=O)C(=O)Nc1ccc2c(c1)OCO2	-7	-4	7	1.4	-8	5
c1ccc2c(c1)CCCN2c1nc2ccccc2n2cnnc12	-1	nt	33	1.9	-1	-21
COc1nn(C(C)C(=O)N2N=C(C(F)F)CC2(O)C(F)F)cc1[N+](=O)[O-] (stereo unspecified)	-7	-18	-1	-0.9	-2	1
Nc1c(C(=O)NCc2ccco2)c2nc3ccccc3nc2n1CCc1ccccc1	42	4	-1	1.2	-3	nt
COCCNC(=O)C1CCCN(C(=O)c2ccc3ccccc3n2)CC1 (stereo unspecified)	nt	nt	2	-0.1	-7	13
O=C(NC1CCCC1)c1n[nH]c2ccccc12	39	4	2	-0.1	-5	14
COc1ccc(/C(C)=N/NC(=O)c2nnn(-c3nonc3N)c2CN(C)c2ccccc2)cc1	0	-3	-2	-0.2	14	8
CSc1ccccc1OCc1cc(C(=O)NC(C)c2cnn(C)c2)no1 (stereo unspecified)	0	-6	-8	1.4	-17	-6
NS(=O)(=O)c1ccc(CCNCC#Cc2ccccc2)cc1	-4	-25	3	-0.1	-5	-11
CCOc1ccc(C(=O)Nc2ccc(S(=O)(=O)Nc3nccc(C)n3)cc2)cc1OCC	-13	3	11	0.5	1	0
CC(=O)Nc1ccc(N(C(=O)c2cnccn2)C(C(=O)NC2CCCCC2)c2ccc(F)cc2)cc1 (stereo unspecified)	-2	-13	10	0.7	-27	19
N#Cc1ccc(NC(=S)NC(=O)C2CC2)cc1	5	nt	-3	-0.5	-11	-11
Cc1c(C(=O)/C=C/c2cccs2)oc2ccc(F)cc12	2	0	-2	0.9	-2	0
Cc1ccc(S(=O)(=O)N2CCCCC2)cc1C(=O)N1CCN(c2ccccn2)CC1	4	-4	-1	-1.5	-8	5
Cc1ccc(NC(=O)C2CC2C)cc1S(=O)(=O)N1CCOCC1 (stereo unspecified)	-5	-6	2	-0.2	-6	5
Cc1ccccc1NC(=O)C1(C)Cc2ccccc2C(=O)O1 (stereo unspecified)	5	-6	3	-0.3	-6	7
COc1ccc(S(=O)(=O)N(C)c2ccc(C(=O)Nc3cccnc3)cc2)cc1	9	-16	-7	-0.3	1	-4
Nc1ccccc1SCC(=O)Nc1cccc2ccccc12	10	12	-2	-0.5	-3	2
CC(=O)c1sc(Nc2ccc(Oc3ccccc3)cc2)nc1C	nt	nt	-4	-0.8	-4	2
O=C(CSc1ccsc1[N+](=O)[O-])N1CCN(c2ccccc2)CC1	4	-3	-20	0.0	-29	-5
c1ccc2c(c1)Cc1cc3ccccc3nc1-2	8	-1	-24	2.5	-11	-29
O=C(Nc1ccc2c(c1)OCO2)C1CC(c2cccc(Br)c2)=NO1 (stereo unspecified)	13	-9	-14	2.6	-1	-2
O=C1Nc2ccccc2N(O)N1c1ccc(S(=O)(=O)N2CCCCCC2)cc1	-5	10	3	0.3	-10	0
Cc1ccc(C2N(c3ccccc3)C(=O)N3CCCN23)cc1 (stereo unspecified)	16	2	8	0.4	-8	nt
CCC(C)(C(=O)NC1CCCCC1)N(CC1CCCO1)C(=O)c1ccccn1 (stereo unspecified)	-3	0	4	-1.0	-8	4
Cc1cccc(NC(=O)CSc2nccn2Cc2ccco2)c1	-8	16	-4	2.1	-12	-4
OCCN(Cc1ccccc1)Cc1ncccc1O	-20	nt	-15	-0.2	-6	-12
COCCCn1[nH]c2c3c(ccc2c1=O)C(=O)c1ccccc1C3=O	-1	-8	-28	-0.6	-5	-23
COc1ccc2cc(-c3ccsc3)ncc2c1	-1	-4	5	0.7	-12	13
CCN1C(=O)c2cccc3c(NC(=O)C(C)(C)C)ccc1c23	-8	25	2	1.7	5	-1
OCCNC(=S)Nc1ccc(Oc2ccccc2)cc1	2	-13	4	0.2	3	5
O=C(c1ccc2c(c1)OCCO2)C1CCN(C(=O)Nc2ccccc2F)CC1	14	-7	4	1.2	-3	0
O=C(Cc1c[nH]c2ccccc12)Nc1nnc(C2CC2)s1	19	-2	-3	-0.2	5	2
O=C(OCC(=O)N1CCCC1=O)c1cccc([N+](=O)[O-])c1	10	-13	-7	-0.1	-29	-1

# Sorted by value in D2 PAM (falling): 3 of the compounds above
molecule | TRPML1 blocker | Six1-Eya2 blk | D2 PAM | CtBP-E1A inh
COc1ccc(CNC(=O)Cc2c[nH]c3ccccc23)cc1OC | nt | -12 | 4 | 3
O=C(Nc1ccc2c(c1)OCO2)C1CC(c2cccc(Br)c2)=NO1 (stereo unspecified) | 13 | -14 | -1 | -2
Nc1ccccc1SCC(=O)Nc1cccc2ccccc12 | 10 | -2 | -3 | 2

# The results go on:
SMILES	TRPML1 blocker	TRPV1 potentiator	Six1-Eya2 blk	TRPML1 ag	D2 PAM	CtBP-E1A inh
CC(C)(C)OC(=O)N1CCCC(C(=O)Nc2ccc(C(=O)N3CCCC3)cc2)C1 (stereo unspecified)	-5	nt	6	0.2	-7	4
COc1ccc(NC(=O)CCOc2ccccc2)cc1	1	23	12	-0.6	0	5
O=C(O)CCCCCCCCCCCc1ccccc1	nt	26	0	nt	-22	0
c1ccc(N2CCN(Cc3nnnn3C3CCCCC3)CC2)cc1	-5	1	1	0.9	-16	5
CC1CN(S(=O)(=O)c2cccc(C(=O)NCC(c3cccs3)N3CCOCC3)c2)CC(C)O1 (stereo unspecified)	1	nt	1	1.2	-2	9
OCC[C@H]1C[C@H](O)[C@@H](O)[C@@]2(CCc3ccccc3O2)O1	-3	-11	3	-0.4	-5	nt
O=C(Nn1c(SCc2ccccc2F)nc2ccsc2c1=O)c1ccccc1	-4	6	-24	0.9	-6	-23
CCOc1ccc(NC(=O)CN(C)S(=O)(=O)c2cccc3cccnc23)cc1	-2	-8	0	-1.3	-4	-8
C=CCN1C(=O)/C(=C/c2ccc(OCC(=O)O)cc2)S/C1=N/c1nccs1	-2	7	-7	1.5	-5	3
O=S(=O)(NCC1CCN(c2ccc(S(=O)(=O)N3CCOCC3)cc2)CC1)c1ccccc1	21	-14	-18	-0.2	1	-1
CCc1cc(C(=O)NNC(=S)NCc2ccccc2)cs1	17	13	-1	1.7	-18	-27
Cc1ccc(NS(=O)(=O)c2ccc(OCC(=O)NCc3cccnc3)cc2)cc1	-12	1	3	-0.2	-14	13
NCC(O)CN1CCN(Cc2ccccc2)CC1 (stereo unspecified)	43	-4	6	0.2	0	-5
CCNc1nc(NC(C)C)nc(Oc2ccc(/C=N/O)cc2)n1	0	-1	2	-0.3	11	0
CC(C)(C)C(=O)Nc1ccc(C(=O)CN2C(=O)NC3(CCOc4ccccc43)C2=O)cc1 (stereo unspecified)	8	2	0	-0.4	3	nt
Cn1c(SCC(=O)NC2CCCCC2)nnc1-c1cccnc1	15	18	-2	0.5	-2	13
N#CC1CCCc2c1[nH]c1ccc([N+](=O)[O-])cc21 (stereo unspecified)	17	-12	-8	1.4	-5	-24
CC(CN1CCCCC1)NC(=O)c1cc(-c2ccccn2)nc2ccc(Cl)cc12 (stereo unspecified)	-4	-13	-20	-0.8	-14	2
Cc1ccc2cc(CN(Cc3ccc4c(c3)OCO4)Cc3nnnn3Cc3ccco3)c(=O)[nH]c2c1C	-4	9	-23	-0.8	-44	-19

# High-throughput results as filed in PubChem BioAssay.
